GALR2 agonist = activates the human galanin receptor 2; O43603; GALR2-expressing cells, agonist activation read-out; activation, %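 (tested at 5 µM)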; 0.48% of 140,000 active; AID 803;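 active means above mean plus 3 SD of all compounds, about 5% in these data, not always enough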;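 further: 0% = vehicle buffer wells and 100% = reference agonist at full effect; tested in CHO reporter cells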
Target sequence (O43603 whole entry, looked up): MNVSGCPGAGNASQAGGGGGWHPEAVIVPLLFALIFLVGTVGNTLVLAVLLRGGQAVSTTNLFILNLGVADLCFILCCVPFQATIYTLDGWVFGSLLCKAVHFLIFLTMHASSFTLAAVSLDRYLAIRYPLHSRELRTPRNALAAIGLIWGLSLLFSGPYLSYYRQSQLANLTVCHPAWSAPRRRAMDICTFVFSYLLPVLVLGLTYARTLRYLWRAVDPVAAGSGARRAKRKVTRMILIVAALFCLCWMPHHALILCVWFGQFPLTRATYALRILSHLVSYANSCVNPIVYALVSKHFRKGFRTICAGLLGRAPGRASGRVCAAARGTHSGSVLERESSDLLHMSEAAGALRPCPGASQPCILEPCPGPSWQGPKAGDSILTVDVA
PKD1 kinase inh = blocks activity of human protein kinase D1; Q15139; PKD1 kinase fluorescence polarization assay; inhibition, %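 (about 10 µM by stock and volumes)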; 0.056% of 200,000 active;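 active means inhibition of 50% or more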;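 further: controls were vehicle for no effect and a reference inhibitor for full effect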
RGS16-Gao = regulators of human RGS16-Galphao interaction | bead-based flow cytometry RGS16-Galphao binding, fluorescence; actives lie on both sides | binding response (% of control), % at 10 µM | 0.38% of 220,000 active;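 active means below 25% or above 175%, edge rows of some plates excepted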;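 further: Galphao activated by GDP with aluminum fluoride before binding; 100% = wells without compound and 0% = beads without RGS; some results beyond the cut were filed as inactive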
Target sequence (O15492 whole entry, looked up): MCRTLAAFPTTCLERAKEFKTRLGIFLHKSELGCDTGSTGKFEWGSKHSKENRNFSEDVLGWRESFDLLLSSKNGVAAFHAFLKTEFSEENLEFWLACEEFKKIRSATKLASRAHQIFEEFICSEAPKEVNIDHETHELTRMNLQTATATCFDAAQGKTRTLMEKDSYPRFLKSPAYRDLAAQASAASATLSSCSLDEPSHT
Target sequence (P09471 whole entry, looked up): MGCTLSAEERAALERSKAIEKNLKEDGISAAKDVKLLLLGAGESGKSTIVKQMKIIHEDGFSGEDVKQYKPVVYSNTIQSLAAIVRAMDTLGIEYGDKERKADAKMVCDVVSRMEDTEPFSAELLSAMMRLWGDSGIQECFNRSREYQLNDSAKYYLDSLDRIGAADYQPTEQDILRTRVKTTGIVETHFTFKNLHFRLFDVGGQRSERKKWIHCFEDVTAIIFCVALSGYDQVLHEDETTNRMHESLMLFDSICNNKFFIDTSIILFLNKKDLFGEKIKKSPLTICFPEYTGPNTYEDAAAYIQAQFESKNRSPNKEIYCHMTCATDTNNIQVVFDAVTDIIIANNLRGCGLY
HSV augment = HSV replication enhancement. maximum fold increase. HSV replication augmentation in cells, fold increase. 0.005% of 220,000 active;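 active means peak rise of 1.5-fold or more in the series; tested in PC3 cells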;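 further: first round at 10 µM; read as green reporter fluorescence; hits show the peak of a series up to 25 µM; 1 = signal of infected wells without compound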
INS promoter inh = TRM-6 insulin promoter activity inhibition. inhibition, % at 2 µM. TRM-6 cells (human fetal islet line), insulin promoter-eGFP reporter, imaging; reporter expression induced with tamoxifen. 0.9% of 130,000 active. AID 1273;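 active means inhibition above the mean plus 3 SD, with well images judged a real hit on visual review, cut at about 60% in these data, passing the limit was not always enough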
INS promoter inh cell count = second read-out of INS promoter inh, no call of its own (marks repeat the call); normalized cell count, %; measured here: cell count, toxicity; reference of the scale not given here;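 cells exposed to compound for 48 h; stained nuclei by imaging scaled within each plate; lower means fewer cells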
HSV augment primary fold = also measured in HSV augment; calls as there; fold increase; compound at 10 µM; measured here: primary screen fold increase 10 uM; tested in PC3 cells;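 GFP signal in the first replicate; 1 = infected wells without compound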
* = called active by the depositor; i = inactive; · = not tested or not shown.

cpd	smiles	GALR2 agonist	PKD1 kinase inh	RGS16-Gao	HSV augment	HSV augment primary fold	INS promoter inh	INS promoter inh cell count
1	c1ccc(Cn2c(CNc3nc4ccccc4n3CCN3CCOCC3)nc3ccccc32)cc1	-0.7	-7	103	i	0.8	-91	148
2	CC1(C)C2CCC1(C)C(NC1=NCCC1)C2 (stereo not drawn)	-3.1	7	101	i	1	21	61
3	CC(Oc1ccc(Cl)cc1Cl)C(=O)NC1CCSC1=O (stereo not drawn)	-3.8	-9	100	i	1	-9	189
4	COc1ccc(NC(=O)C(NC(=O)c2ccc(=O)[nH]c2)c2ccccc2)cc1 (stereo not drawn)	-2.0	-1	110	i	0.96	-37	85
5	O=C(NCC1CCCO1)c1ccc(N2CCCCC2)nc1 (stereo not drawn)	0.2	-7	94	i	0.81	·	·
6	O=C(Nc1ccc(N2CCOCC2)cc1)C1CCCN(S(=O)(=O)c2cccc(C(F)(F)F)c2)C1 (stereo not drawn)	-2.0	-12	104	i	0.73	38	84
7	COc1cccc(/C=N/Nc2ncnc(N)c2[N+](=O)[O-])c1OC	0.2	-10	100	i	0.71	-9	95
8	CCOc1ccccc1N1CCN(Cc2cnc(-c3ccccc3)[nH]2)CC1	·	·	100	i	0.92	·	·
9	O=C(c1ccccc1)c1nccc2ccccc12	0.5	5	109	i	1	8	147
10	O=C(CC12CC3CC(CC(C3)C1)C2)NC(=S)N1CCCCC1	-1.1	-18	72	i	1.2	·	·
11	CC(=O)Nc1ccc(N2N=C(C)C(N=Nc3ccccc3)C2=O)cc1 (stereo not drawn)	-1.2	0	102	i	0.87	14	197
12	CCSc1nc2c(c(=O)[nH]1)C(c1cccs1)C(C(=O)OC)=C(C)N2 (stereo not drawn)	-1.2	-8	103	·	·	-12	109
13	N/C(=N\OC(=O)c1cc(Br)ccc1Cl)c1ccccn1	·	-9	99	i	0.98	53	102
14	N#Cc1c(C(F)(F)F)cc(-c2ccc(Cl)cc2)nc1SCC(=O)O	·	4	126	i	1.2	·	·
15	Cc1cccc(-c2noc(CN(C)S(=O)(=O)c3cc(Cl)ccc3Cl)n2)c1	-1.5	8	65	i	0.91	27	99
16	COc1nc(Nc2ccc(C(C)C)cc2)nc(OC)n1	-2.4	-7	106	i	1.1	67	105
17	CCn1c(COc2cccc(OC)c2)nnc1SCC(=O)Nc1ccccc1C(=O)OC	0.0	-2	107	i	0.86	-41	77
18	O=C(OCc1cc([N+](=O)[O-])cc2c1OCOC2)c1ccccn1	·	-7	108	·	·	21	199
19	COc1ccc(NC(=S)Nc2ccc(C)c(S(=O)(=O)N3CCCCC3)c2)cc1	-0.3	3	101	i	0.91	19	159
20	CCC(CC)C(=O)c1c[nH]c(C(=O)N2CCN(c3ccccc3F)CC2)c1	·	3	99	i	0.9	·	·
21	CCOc1cccc2sc(=NC(=O)c3ccc(S(=O)(=O)N4CCOCC4)cc3)n(C)c12	-3.4	-1	103	i	0.85	·	·
22	C/C=C1\C(OC2OC(CO)C(O)C(O)C2O)OC=C(C(=O)OC)C1CC(=O)OCC1C(C)C(OC(=O)CC2C(C(=O)OC)=COC(OC3OC(CO)C(O)C(O)C3O)/C2=C\C)CC1C(CO)CO (stereo not drawn)	·	7	109	i	0.92	·	·
23	Cc1cccc(-n2ncc3c(NCc4ccccn4)ncnc32)c1	-1.5	-9	82	i	0.85	21	123
24	Cc1ccc2nc(C)/c(=N\O)c(C)nc2c1	-2.7	-17	94	i	1.1	49	198
25	CCCn1c(=N)c(C(=O)NCC2CCCO2)cc2c(=O)n3cccc(C)c3nc21 (stereo not drawn)	2.6	-1	103	i	0.97	·	·
26	Cc1ccc(C(=O)c2c(NC(=O)c3cccnc3)sc3c2CCCC3)cc1	-2.2	6	100	i	0.66	·	·
27	Cc1ccc(S(=O)(=O)N2CCC(=O)N(C(COCc3ccccc3)C(C)C)CC2)cc1 (stereo not drawn)	-1.0	-8	101	i	1.1	-120	94
28	Cc1oc(-c2ccc(Cl)cc2)nc1CN1CCC(C(=O)NCCCN2CCOCC2)CC1	-3.3	5	110	i	0.83	·	·
29	CO/N=C(/CS(=O)c1ccc(Br)cc1)c1ccc(OC)cc1 (stereo not drawn)	-2.0	0	103	i	0.97	-39	65
30	CCCCn1c2c(c(=N)c3ccccc31)CCC2	·	·	98	i	0.94	·	·
31	Cc1ccc2nc(-c3ccc(N4C(=O)CC(N5CCN(CCO)CC5)C4=O)cc3)sc2c1 (stereo not drawn)	0.0	0	100	i	0.91	·	·
32	CC(C)(C)C1CCC(OCC(O)CN2CCN(Cc3ccccc3)CC2)CC1 (stereo not drawn)	0.6	-2	104	i	0.81	·	·
33	O=C(Nc1nnc(-c2ccncc2)o1)C1CCCCC1	-0.8	1	96	i	1.1	·	·
34	CCCCOc1ccccc1/C=N/NC(=O)CC#N	·	0	101	i	0.97	-92	120
35	Cc1cc(Cl)ccc1NNC(=O)c1c(C)noc1C	·	·	105	i	1.1	·	·
36	CC(=O)C1C(c2ccccc2OC(F)F)NC(=O)NC1(O)C(F)(F)F (stereo not drawn)	0.7	6	102	·	·	-67	81
37	COC(=O)COc1ccc(-c2nn(C)c(=O)c3ccccc23)cc1	1.4	-5	106	i	0.94	10	34
38	COC(=O)Cc1cc(=O)n(-c2nc3ccccc3[nH]2)[nH]1	-1.2	-20	100	i	0.91	·	·
39	COc1ccccc1N1CCN(CC(=O)c2c(C)n(C)c3ccccc23)CC1	-1.7	0	99	i	0.97	-16	74
40	CCCCCCCC(=O)NNC(=O)Cc1ccccc1	-2.2	-4	106	i	0.97	10	148
41	Cc1cc2cc3c(cc2nc1SCC(=O)N1c2ccccc2CC1C)OCO3 (stereo not drawn)	-2.3	-3	101	i	1.1	-431	50
42	O=C(CSc1nccn1-c1ncc(C(F)(F)F)cc1Cl)c1ccc(Cl)cc1	-1.5	-4	94	i	1.1	42	55
43	Cc1noc(NS(=O)(=O)c2ccc(NC(=O)C34CC5CC(C3)CC(n3cnc(Cl)n3)(C5)C4)cc2)c1C	-0.9	-7	56	i	0.98	33	124
44	O=C(NCCc1csc(-c2cccnc2)n1)c1c(F)cccc1F	·	·	97	i	1	·	·
45	COc1ccc(OC)c(NC(=O)CN(c2ccc(OC)c(Cl)c2)S(C)(=O)=O)c1	-0.9	-8	103	i	1	·	·
46	O=C(c1cn(-c2ccccc2)nc1-c1cc2ccccc2oc1=O)N1CCOCC1	·	-5	100	i	0.94	26	112
47	COCc1cc(C)nc(OC)c1C(N)=O	·	-2	100	i	1	53	39
48	CCCc1cc(=O)n2[nH]c(Cc3ccccc3)nc2n1	-3.5	-3	107	i	1.1	44	127
49	COc1ccc(N(CC(=O)Nc2ccc3c(c2)OCCO3)S(=O)(=O)c2c(C)noc2C)cc1	-4.0	-13	103	·	·	·	·
50	COc1ccc(O/C(=N\S(=O)(=O)c2ccccc2)c2ccccc2)cc1	-2.0	-9	92	i	0.9	-39	109
51	CCOc1ccccc1NC(=O)c1ccc(F)c(S(=O)(=O)N2CCC3(CC2)OCCO3)c1	-1.1	-23	94	i	0.85	0	77
52	CC(c1ccc(F)cc1)n1cc(C(=O)NCc2ccccn2)nn1 (stereo not drawn)	·	-1	162	i	0.95	-8	103
53	Cc1ccc(-n2c(=O)c3c4c(sc3n3c(C)nnc23)COC(C(C)C)C4)cc1 (stereo not drawn)	-1.3	-4	·	i	0.91	-9	100
54	COC(=O)C(Cc1ccccc1)NC(=O)C12CC3CC(CC(C3)C1)C2 (stereo not drawn)	-0.8	7	98	i	1.1	·	·
55	CSCCC(NS(=O)(=O)c1ccc2c(c1)OCCO2)C(=O)NCCc1ccccn1 (stereo not drawn)	-1.5	-2	101	i	0.84	-79	85
56	Cn1c(=O)n(C)c2cc([N+](=O)[O-])c(N3CCN(C(=O)c4ccc(F)cc4)CC3)cc21	·	1	100	i	0.91	·	·
57	COc1cc([N+](=O)[O-])ccc1NC(=O)COC(=O)C=C(C)C	·	2	119	i	0.98	45	55
58	CCN(C(=O)CN1CCN(c2ccc(O)cc2)CC1)c1c(N)n(Cc2ccccc2)c(=O)[nH]c1=O	-0.3	10	99	i	0.92	·	·
59	CCOc1cc(Br)ccc1S(=O)(=O)N1CCC(C(N)=O)CC1	-1.6	-3	86	i	1	-23	160
60	O=C(/C=N/O)NCCCn1ccnc1	-0.3	-8	99	i	1	-16	74

The results go on.
cpd	smiles	GALR2 agonist	PKD1 kinase inh	RGS16-Gao	HSV augment	HSV augment primary fold	INS promoter inh	INS promoter inh cell count
61	Cc1ccc(C)c(NC(=O)CCC(=O)N/N=C/c2cc([N+](=O)[O-])ccc2O)c1	·	2	99	i	1.1	·	·
62	Cc1cccc(C)c1N1CCN(C(=O)N2CCOCC2)CC1	·	-4	111	i	1	·	·
63	N#C/C(=C(/O)CCl)c1nnc2n1CCCCC2	·	-3	97	i	1.1	·	·
64	COC(=O)[C@H](CCSC)NC(=O)NCCc1ccc(F)cc1	-1.6	-3	100	i	0.94	39	42
65	O=C(COc1ccc(/C=N/NC(=O)C(=O)N2CCCCC2)cc1)Nc1ccccc1Cl	·	-4	107	i	0.97	19	101
66	COc1ccc(NC(=O)Cn2c(=O)n(-c3ccc(CC(=O)NCc4ccco4)cc3)c(=O)c3ccccc32)cc1	·	6	101	i	0.67	·	·
67	O=C(NNc1ccccc1)C(=O)NNS(=O)(=O)c1ccc([N+](=O)[O-])cc1	·	0	104	i	0.94	25	65
68	O=C(NCc1ccccc1)c1ccc(CN2CCOCC2)cc1	-0.5	-4	95	i	0.88	-7	89
69	NC(=O)c1ccc(NC(=O)c2ccccc2S(=O)(=O)c2ccccc2[N+](=O)[O-])cc1	-0.2	3	102	i	1	0	77
70	CCc1ccc(NC(=O)c2cc(C(C)C)on2)cc1	0.8	-3	99	i	0.64	10	108
71	CCn1nnnc1SCC(=O)c1ccc2c(c1)OCCO2	0.0	-5	93	·	·	-19	85
72	CC1CC(=O)Nc2ccccc2N1C(=O)CN1CCN(c2ccccc2)CC1 (stereo not drawn)	·	-8	103	i	1	·	·
73	O=C(N/N=C\c1ccc2c(c1)OCO2)c1ccco1	-0.1	-2	105	i	1.2	·	·
74	Cc1ccc(NC(=O)CN(C)S(=O)(=O)c2ccc(Br)s2)cc1F	-1.8	-11	109	i	0.9	50	90
75	CCOC(=O)Nc1ccc2c(COC(=O)CNS(=O)(=O)c3ccc(NC(C)=O)cc3)cc(=O)oc2c1	·	-2	104	i	0.98	29	88
76	Cc1cc(Br)ccc1SCC(=O)OCC(=O)NCc1ccc2c(c1)OCO2	-2.5	-5	105	i	0.94	·	·
77	COC(=O)c1ccc2c(=O)n(Cc3ccco3)c(SCC(=O)Nc3ccccc3Cl)nc2c1	-1.6	-2	92	i	0.81	·	·
78	Cc1ccc(-c2nn(-c3ccccc3)cc2C=O)o1	·	-3	112	i	1.1	·	·
79	COc1ccc(-c2nc(N)n[nH]2)cc1	-1.0	4	104	i	0.87	14	109
80	Fc1ccc(C(c2nnnn2Cc2cccs2)N2CCN(C3CCCCC3)CC2)cc1 (stereo not drawn)	-1.3	-2	102	i	1	·	·

Ordered by SMILES length (low to high): three of the compounds above.
cpd	smiles	GALR2 agonist	PKD1 kinase inh	RGS16-Gao	HSV augment	HSV augment primary fold	INS promoter inh	INS promoter inh cell count
9	O=C(c1ccccc1)c1nccc2ccccc12	0.5	5	109	i	1	8	147
73	O=C(N/N=C\c1ccc2c(c1)OCO2)c1ccco1	-0.1	-2	105	i	1.2	·	·
61	Cc1ccc(C)c(NC(=O)CCC(=O)N/N=C/c2cc([N+](=O)[O-])ccc2O)c1	·	2	99	i	1.1	·	·

Back to the main list with the 4 entries that preceded the break.
cpd	smiles	GALR2 agonist	PKD1 kinase inh	RGS16-Gao	HSV augment	HSV augment primary fold	INS promoter inh	INS promoter inh cell count
77	COC(=O)c1ccc2c(=O)n(Cc3ccco3)c(SCC(=O)Nc3ccccc3Cl)nc2c1	-1.6	-2	92	i	0.81	·	·
78	Cc1ccc(-c2nn(-c3ccccc3)cc2C=O)o1	·	-3	112	i	1.1	·	·
79	COc1ccc(-c2nc(N)n[nH]2)cc1	-1.0	4	104	i	0.87	14	109
80	Fc1ccc(C(c2nnnn2Cc2cccs2)N2CCN(C3CCCCC3)CC2)cc1 (stereo not drawn)	-1.3	-2	102	i	1	·	·
81	Cc1ccc(COc2ccsc2C(=O)NN)cc1	·	1	98	i	0.83	20	139
82	COc1cc(OC)c(OC)cc1/C=N/NC(=O)C[n+]1ccccc1	-1.3	1	101	·	·	·	·
83	CC(C)C(=O)Nc1ccc(S(=O)(=O)Nc2ccccn2)cc1	·	2	81	i	0.8	·	·
84	O=C1Nc2ccc(S(=O)(=O)NCC3CCCO3)c3cccc1c23 (stereo not drawn)	·	-11	93	i	0.94	·	·
85	Cc1ccsc1C(C(=O)NC1CCCCC1)N(C(=O)Cc1cccs1)C1CC1 (stereo not drawn)	0.5	-11	100	i	0.93	-19	78

High-throughput results deposited in PubChem by several laboratories.

The order is random. About 1.2% of those tested had a hit in this group.
